Screening results: PubChem BioAssay, several laboratories
Mtb hypoxia rep: reduces hypoxia-regulated biosensor signal in M. tuberculosis; M. tuberculosis hypoxia-regulated fluorescent reporter, fluorescence; fluorescence inhibition, % (test concentration not listed); actives 0.1% (n = 300,000); AID 1159583;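 active = 35 to 45% if threefold the growth effect, above 45% if 1.5-fold the growth effect; inactive = the rest, general growth blockers included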;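 note: wells of about 50 µL received 100 nL stock; 0% = vehicle wells and 100% = reference inhibitor wells; whole bacteria with a GFP reporter of the hypoxia response; strong numbers were not always called active; many hits fall short of the cut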
Sa ugtP lethal: growth inhibition of S. aureus ugtP deletion strain | S. aureus RN4220 ugtP deletion, OD600 growth, 16 h; some inactives read as strong as hits | growth inhibition, % (no concentration beside the values) | actives 0.54% (n = 330,000);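 active = z-score under -3 and OD600 up to 0.15 on both plates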;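 note: plate controls were untreated wells for no effect and antibiotic for full effect; wells of about 80 µL received 100 nL stock; the first replicate is given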
Autofluor counter: counter-screen for toxin protease inhibitors: compound fluorescence; compound autofluorescence counterscreen, microsphere flow cytometry; hits give high values; fluorescence intensity (concentration not given with the values); actives 3.1% (n = 360,000); AID 624483;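 active = at least 3 SD above the mean of all compounds, about 16000 in these data; inconclusive = too few beads counted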;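 note: 100 nL of 1 mM stock went into each well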
Sa RN4220 lethal: kills Staphylococcus aureus RN4220 | S. aureus RN4220 growth, OD600, 16 h | inhibition, % (test concentration not listed) | actives 0.33% (n = 330,000);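 active = z-score of -3 or lower and OD600 up to 0.18 on both plates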;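 note: plate controls were untreated cells for no effect and reference antibiotic for full effect; stock transfer was 100 nL into about 80 µL; one replicate is shown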
PrP 5UTR inh: suppresses PrP 5' UTR mRNA reporter expression. actives 0.35% (n = 340,000). AID 488862. cell-based PrP 5' UTR mRNA reporter, plate reader. inhibition, % (concentration not given with the values);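 active = every replicate at 50% or more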;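 note: 0 = median of the neutral control wells; tested in H4 reporter cells; numbers are from one replicate; inactives centre near -14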
BJeLR lethal: BJeLR cell viability loss. inhibition, % (no concentration beside the values). BJeLR (HRASV12) viability, CellTiter-Glo ATP luminescence, 48 h; reference of the scale not given here. actives 0.17% (n = 300,000). AID 1554;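 active = replicate mean above 50%; inconclusive = above 50% but judged a plate artefact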;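 note: 50 nL library stock added to about 25 µL; numbers are from one replicate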
Mtb hypoxia rep growth: second read-out of Mtb hypoxia rep, no call of its own (marks repeat the call); growth inhibition, %; measured here: M. tuberculosis growth (absorbance);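 0% = vehicle and 100% = reference antibiotic; read after six days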
Active calls of the source: *; ? = inconclusive; / = not tested or not shown; & = joins results of further samples.

SMILES | Mtb hypoxia rep | Mtb hypoxia rep growth | Sa ugtP lethal | Autofluor counter | Sa RN4220 lethal | PrP 5UTR inh | BJeLR lethal
COCCNC(=O)NC(=O)CN1CCCc2ccccc21 | 0 | -4 | -4 | 2370 | -0.4 | -21 | -6
COc1ccc(-n2nc(C(=O)NCC(=O)NCc3ccc(F)cc3)c3ccccc3c2=O)cc1 | 2 | -1 | 0 | 5327 | 0.9 | -30 | -12
O=C(Nc1nccs1)C1CCCN(S(=O)(=O)c2cccc3cccnc23)C1 (stereo not drawn) | / | / | 7 | 5607 | 3.5 | -3 | -13
CC(NC(=O)CCl)c1ccccc1Br (stereo not drawn) | 20 | 23 | 4 | 5935 | 3.4 | -7 | -6
CC(C)OC(=O)CCC(=O)Nc1ccc(F)cc1 | 9 | 5 | 10 | 4211 | 3.1 | -22 | -7
CCCN1CCc2cccc3c2C1Cc1ccc(O)c(O)c1-3 (stereo not drawn) | 10 | -3 | -11 | / | 10 | / | /
CCOC(=O)c1cccc(NC(=O)/C=C/c2ccc3c(c2)OCO3)c1 | 6 | 3 | -10 | 1933 | -6.2 | 60* | 7
C=CCn1c(CNC(=O)c2cccs2)nnc1SCc1ccc(Cl)cc1Cl | 1 | -3 | -18 | 2194 | -7.7 | 2 | -1
COc1ccccc1CN1C[C@@H]2C[C@@H](c3[nH]c4c(C)cccc4c3C)N3CCC[C@@]23C1=O | -5 | 5 | -3 | 3031 | 1.5 | -3 | 4
COc1cc(NC(=O)c2ccccc2NS(=O)(=O)c2ccc(Cl)s2)cc(OC)c1 | 13 | 1 | 88* | 9959 | 74 | 12 | 19
Cc1cc(NC(=O)CCC(=O)N(CC2CCCO2)C(C(=O)NC2CCCC2)c2cccnc2)no1 (stereo not drawn) | 5 | -4 | 2 | 4358 | 0.5 | -22 | 0
COc1ccc2nc(/C=N/NC(=O)[C@@H]3CCCN3C(=O)OC(C)(C)C)ccc2c1 | / | / | / | 3693 | / | -18 | 4
O=C(N/N=C/c1cc(Cl)ccc1O)c1ccncc1 | / | / | / | 4693 | / | 9 | -4
CCOc1ccccc1N(CC(=O)NCCSCc1ccco1)S(=O)(=O)c1ccccc1 | 3 | 2 | -1 | 5887 | 3.3 | -13 | 0
COc1ccc(NC(C)C(=O)NN=Cc2cc(Br)ccc2OC)cc1 (stereo not drawn) | 1 | 2 | -1 | / | 7.6 | / | /
O=C(COC(=O)Cn1cnc2ccccc2c1=O)Nc1ccc2c(c1)OCO2 | 13 | 2 | 1 | 4947 | 1.7 | -46 | -6
CCC1(c2ccc(F)cc2)NC(=O)N(CC(=O)N2CCOCC2)C1=O (stereo not drawn) | / | / | -1 | 5661 | 1.3 | -6 | -4
Cc1cc(NC(=O)c2ccccc2Cl)no1 | 1 | -5 | -3 | 2862 | 2.3 | -62 | 4
COc1ccc(NC(=O)CCNC(=O)Cn2cnc3sc4c(c3c2=O)CCCC4)cc1OC | 0 | 3 | 6 | 5250 | 7.4 | -3 | -5
CCN(C(=O)CN1CCC(C)CC1)c1c(N)n(Cc2ccccc2)c(=O)[nH]c1=O | -6 | 8 | 0 | ? | -2.6 | 5 | /
O=C1CCC([N+](=O)[O-])C(c2ccccc2Cl)N1 (stereo not drawn) | 12 | 7 | 6 | 3910 | 3.9 | -8 | -4
O=C(COC(=O)Cc1cccs1)Nc1ccccc1 | 7 | 3 | 1 | 2403 | 6.6 | -9 | 5
C/C(=N\NC(=O)c1ccc(Br)cc1)c1cccc(NC(=O)c2cccnc2)c1 | / | / | / | 2208 | / | -39 | -7
Cc1ccc(NC(=S)N2CCN(C(=O)C3CCCO3)CC2)c(C)c1 (stereo not drawn) | 2 | 2 | 8 | 22658* | 4.4 | 0 | 7
CC(=O)N/C(=N\OCc1ccc(Br)cc1)c1nonc1NC(C)=O | / | / | / | 2054 | / | -3 | -5
SMILES | Mtb hypoxia rep | Mtb hypoxia rep growth | Sa ugtP lethal | Autofluor counter | Sa RN4220 lethal | PrP 5UTR inh | BJeLR lethal
COC(=O)c1c(NC(=O)c2c(-c3ccccc3Cl)noc2C)sc2c1CCC2 | 1 | -1 | 58 | 3437 | 5.0 | -8 | -5
CC(=O)N(CCC(Cc1ccccc1)c1ccc2c(c1)OCO2)Cc1ccc(Cl)cc1 (stereo not drawn) | / | / | 22 | 2957 | -4.9 | -27 | -9
COc1ccc2nnc(-c3ccccc3)n2n1 | 8 | 14 | 4 | 5993 | 2.5 | -13 | -4
CC12COC3(C(=O)NCCc4ccccc4)CC1CCC32C (stereo not drawn) | 7 | 0 | 7 | 2931 | 7.9 | -8 | -3
CCOC(=O)/C(C#N)=C/c1ccc(N2CCN(C)CC2)cc1 | 8 | 4 | 6 | 2491 | -1.3 | -13 | -9
O=C(O)COc1ccccc1/C=N/n1c(C2CCCCC2)n[nH]c1=S | / | / | / | 2929 | / | -17 | -5
Cc1cccc(CN2CCCC(C(=O)c3ccc4c(c3)OCO4)C2)n1 (stereo not drawn) | -1 | 6 | 2 | 3395 | -2.7 | -47 | 3
O=c1n(Cc2ccc(F)cc2)nc2n1-c1ccccc1SC2 | 6 | 15 | 10 | 6464 | 1.3 | -26 | -8
CCOC(=O)c1c(NC(=O)c2cccs2)sc(CC)c1-c1cccs1 | 11 | 14 | -3 | 9957 | 4.5 | -10 | 3
Cc1cc2ncn(CCOc3ccccc3)c2cc1C | 10 | 8 | -6 | 3047 | -2.3 | -76 | -5
Cc1cc(C(=O)N2CCc3c([nH]c4ccccc34)C2c2cccc(Cl)c2)nn1C (stereo not drawn) | 6 | 6 | 9 | 4749 | 11 | -49 | 2
O=C(O)C1CCCCC1C(=O)Nc1ccc(-c2ccccc2)cc1 (stereo not drawn) | 8 | 4 | 3 | 4335 | 2.6 | -5 | 7
CCN(CC)c1ccc(C=C2C(=O)OC(c3ccccc3)OC2=O)cc1 (stereo not drawn) | 0 | 6 | 4 | 6818 | 2.9 | -5 | -6
Cc1ccc(C)c(NC(=O)CN(C)C(=O)c2cc3c(s2)CCCCC3)c1 | 2 | 10 | -1 | 6270 | 2.6 | -10 | 2
CCC1(CC(C)C)C(=O)NC(=S)NC1=O | -5 | 6 | -1 | 3975 | 4.6 | -14 | /
O=C(CN1CCN(S(=O)(=O)c2ccc(Cl)c(Cl)c2)CC1)N1CCCCC1 | -1 | 2 | -3 | 3913 | -0.5 | -5 | /
COc1cc(/C=C/C(=O)OCC(=O)NCCN2C(=O)CSC2=O)ccc1OCC#N | -11 | 1 | 2 | 9405 | 4.1 | -6 | /
O=C(NNc1cccc(Cl)c1)c1cccnc1Oc1ccccc1 | 6 | 11 | 0 | 5146 | -0.1 | -13 | -16
CC(C)(C)C1CCc2c(sc(NC(=O)c3cccs3)c2C(N)=O)C1 (stereo not drawn) | / | / | 3 | 4039 | 0.7 | -58 | 10
COCCNc1nnc(SCC(=O)c2c[nH]c3ccccc23)s1 | 9 | 7 | 9 | 5036 | 3.7 | -4 | 12
COc1ccc(-c2cc(C(=O)N3CCN(c4ccc(F)cc4)CC3)no2)cc1OC | 2 | -1 | 9 | 2947 | 1.2 | -18 | -1
CC1CCc2sc(NC(=O)c3ccc(N4C(=O)CCC4=O)cc3)c(C(N)=O)c2C1 (stereo not drawn) | 8 | 8 | -1 | 4914 | 4.0 | -19 | -8
Cc1ccc(C(O)CCc2ccc(N)cc2)cc1 (stereo not drawn) | 2 | 11 | 0 | 3824 | 3.4 | -12 | -8
CC(=O)Nc1ccc(OC(=O)c2c(-c3ccccc3Cl)noc2C)cc1 | 0 | -2 | 2 | 9691 | 10 | -28 | 4
CCc1cccc(N(C(=O)c2csnn2)C(C(=O)NC2CCCCC2)c2cccnc2)c1 (stereo not drawn) | -1 | 10 | 8 | 6002 | -1.7 | -10 | -11
SMILES | Mtb hypoxia rep | Mtb hypoxia rep growth | Sa ugtP lethal | Autofluor counter | Sa RN4220 lethal | PrP 5UTR inh | BJeLR lethal
CN(CCCn1c(=S)[nH]c2ncccc2c1=O)Cc1ccccc1 | 6 | 8 | 1 | 9716 | 6.8 | -19 | 0
Cc1nc(=S)c2ccccc2[nH]1 | 5 | 2 | 2 | 2600 | 7.2 | -16 | 0
Cc1cccc(C(=O)N2CCCC(N3CCN(Cc4ccc5c(c4)OCO5)CC3)C2)n1 (stereo not drawn) | -6 | -1 | 3 | 4238 | 1.6 | -22 | 4
Cc1nnc(NN=Cc2ccco2)n1N | -7 | -3 | 5 | / | 9.3 | / | /
Cc1ccc(N=Cc2c(C)[nH]n(-c3ccccc3)c2=O)nc1 | 18 | 11 | 2 | 5201 | 4.4 | 2 | 10
CC(C)NS(=O)(=O)c1ccc(NC(=O)Cc2ccsc2)cc1 | 10 | 17 | -3 | 3706 | 2.3 | -11 | 0
CS(=O)(=O)N1CCN(C(=O)c2ccccc2)C1 | 2 | -2 | 9 | 16660* | 2.0 | -18 | -13
CCCN1Cc2cccc(C(=O)NCc3ccc(C)cc3)c2C1=O | -1 | -12 | 0 | 2502 | 3.6 | 2 | -12
O=C(CSc1ccc(Cl)cc1)NCc1ccncc1 | 11 | 13 | 2 | 4059 | 5.4 | -19 | -1
CCCS(=O)(=O)N1CCC(CCOc2ccccc2)(C(=O)OCC)CC1 | 9 | 7 | 11 | 3289 | 2.4 | -9 | 13
CC(C)(C)c1cc(=O)n2c(nc3ccccc32)[nH]1 | / | / | -2 | 2190 | 4.1 | -9 | 10
COc1ccccc1NS(=O)(=O)c1cccc(C(=O)NN=C(C)c2cccnc2)c1 | 9 | 4 | 9 | / | 7.2 | / | /
CC(=O)NCCOc1cccc(OCCNC(C)=O)c1 | 1 | 5 | 2 | 4271 | -1.1 | 0 | -3
CCN(c1ccccc1)S(=O)(=O)c1ccc(OC)c(NC(=O)c2cc(F)c(F)c(F)c2F)c1 | 2 | -7 | 8 | 2807 | 14 | -6 | /
O=C(Oc1cccccc1=O)c1ccccc1 | -5 | -2 | -3 | 2491 | 14 | -16&-13 | -1
Cc1ccc(S(=O)(=O)c2ccccc2)cc1S(=O)(=O)N1CCOCC1 | 7 | 2 | 3 | 4174 | 8.2 | -30 | -4
COc1ccc(CCc2nnc(CCC(=O)NCCc3ncccc3C)o2)cc1 | -3 | 3 | 15 | 2622 | 2.5 | -13 | -10
O=C(NNC(=O)C1[C@H]2CCCC[C@@H]12)NC1CCCCC1 (stereo partly drawn) | -3 | 5 | 11 | 2929 | 0.2 | -21 | 5
O=S(=O)(c1ccc2c(c1)CCCN2)N1CCCCC1 | -3 | 5 | 7 | 3645 | 3.9 | -12 | /
CN(Cc1cccc(F)c1)C(=O)c1ccc(S(=O)(=O)N2CCCCCC2)cc1 | 0 | 6 | 12 | 2972 | 6.9 | -16 | /
O=C(CNC(=S)N(Cc1ccccc1)Cc1cccnc1)NCc1ccccc1 | 0 | -2 | 1 | 4352 | 1.1 | -26 | 11
COc1cccc(C(=O)COC(=O)c2ccc(NC(C)=O)cc2)c1 | 1 | -1 | 3 | 2123 | 4.0 | -31 | -4
Nc1cccc2c1C(=O)c1ccc(Cl)cc1C2=O | 8 | 4 | 2 | 4091 | -13 | -40 | /
COCCn1c(SCC(=O)N2CCC(C)CC2)nc2c([nH]c3ccccc32)c1=O | 10 | -1 | -5 | 5169 | 2.1 | 0 | 10
O=C(Nc1ccc2c(c1)OCCO2)C1c2ccccc2C(=O)N2CCc3ccccc3C12 (stereo not drawn) | 5 | 3 | 16 | 5887 | 6.5 | -7 | -17
Brc1ccc2nc(-c3c[nH]c4ccccc34)cn2c1 | 9 | 7 | -20 | 4349 | 8.1 | -82 | 1

Of the compounds above, 5 contain bromine:
SMILES | Mtb hypoxia rep | Mtb hypoxia rep growth | Sa ugtP lethal | Autofluor counter | Sa RN4220 lethal | PrP 5UTR inh | BJeLR lethal
CC(NC(=O)CCl)c1ccccc1Br (stereo not drawn) | 20 | 23 | 4 | 5935 | 3.4 | -7 | -6
COc1ccc(NC(C)C(=O)NN=Cc2cc(Br)ccc2OC)cc1 (stereo not drawn) | 1 | 2 | -1 | / | 7.6 | / | /
C/C(=N\NC(=O)c1ccc(Br)cc1)c1cccc(NC(=O)c2cccnc2)c1 | / | / | / | 2208 | / | -39 | -7
CC(=O)N/C(=N\OCc1ccc(Br)cc1)c1nonc1NC(C)=O | / | / | / | 2054 | / | -3 | -5
Brc1ccc2nc(-c3c[nH]c4ccccc34)cn2c1 | 9 | 7 | -20 | 4349 | 8.1 | -82 | 1
